Bioassay records (PubChem BioAssay)
Rango release inh = inhibition of RanGTP-driven Rango-importin beta dissociation. Potency, µM (series often up to 46.1 µM), inactives show at the highest dose activity change, negative = inhibition. O95149+P62826. Biochemical FRET Rango-importin beta, RanGTP-induced dissociation. hit rate 0.071% among 340,000; active means falling FRET ratio curve, often poorly fitted, with flat reads before Ran was added; inconclusive means other falling curves, or compound fluorescence or quenching; inactive means flat or rising ratio curve;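 also: potency is read from the fitted curve at half-maximal effect; % of control where 0% means no effect; nearly all actives have a fitted effect of over 45% in size; -100% = wells without RanGTP and RCC1; the record marks most hits as doubtful in a second field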
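Two FRET readings bracket the reaction: one 5 min after compound meets Rango–importin beta, another 45 min after RanGTP-RCC1 (0.6 uM Ran, 0.2 uM RCC1, 2 mM GTP) is added. Only the second defines inhibition.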
GLA inh pH 4.5 = inhibitors of human alpha-galactosidase A at pH 4.5; P06280; purified enzyme, 4-MU-alpha-Gal fluorescence, pH 4.5; activity change, negative = inhibition, % at 105 µM; 230,000 tested, under 10 active; inconclusive = small, poorly fitted or top-dose-only inhibition, or a rising curve; inactive = flat fitted curve, though single readings scatter; no compound was filed as active;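 also: 0% = full activity with enzyme and -100% = basal without enzyme; dose as in the result columns while the protocol names 77 µM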
Rango complex inh = Rango-importin beta binding inhibition | Rango CFP/YFP FRET sensor + importin beta, 45 min | Potency, µM (highest dose often 92.2 µM), inactives show at the top dose inhibition of complex formation | hit rate 0.031% among 340,000; active = rising FRET ratio curve, often small or poorly fitted; inconclusive = mostly compound fluorescence or quenching in the first reads; inactive = flat curves in all reads;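 also: potency is read from the fitted curve at half-maximal effect; 0% = DMSO wells and 100% = buffer wells lacking importin beta; nearly all actives have a fitted effect of over 15% in size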
Target sequence (Q14974 whole entry, looked up): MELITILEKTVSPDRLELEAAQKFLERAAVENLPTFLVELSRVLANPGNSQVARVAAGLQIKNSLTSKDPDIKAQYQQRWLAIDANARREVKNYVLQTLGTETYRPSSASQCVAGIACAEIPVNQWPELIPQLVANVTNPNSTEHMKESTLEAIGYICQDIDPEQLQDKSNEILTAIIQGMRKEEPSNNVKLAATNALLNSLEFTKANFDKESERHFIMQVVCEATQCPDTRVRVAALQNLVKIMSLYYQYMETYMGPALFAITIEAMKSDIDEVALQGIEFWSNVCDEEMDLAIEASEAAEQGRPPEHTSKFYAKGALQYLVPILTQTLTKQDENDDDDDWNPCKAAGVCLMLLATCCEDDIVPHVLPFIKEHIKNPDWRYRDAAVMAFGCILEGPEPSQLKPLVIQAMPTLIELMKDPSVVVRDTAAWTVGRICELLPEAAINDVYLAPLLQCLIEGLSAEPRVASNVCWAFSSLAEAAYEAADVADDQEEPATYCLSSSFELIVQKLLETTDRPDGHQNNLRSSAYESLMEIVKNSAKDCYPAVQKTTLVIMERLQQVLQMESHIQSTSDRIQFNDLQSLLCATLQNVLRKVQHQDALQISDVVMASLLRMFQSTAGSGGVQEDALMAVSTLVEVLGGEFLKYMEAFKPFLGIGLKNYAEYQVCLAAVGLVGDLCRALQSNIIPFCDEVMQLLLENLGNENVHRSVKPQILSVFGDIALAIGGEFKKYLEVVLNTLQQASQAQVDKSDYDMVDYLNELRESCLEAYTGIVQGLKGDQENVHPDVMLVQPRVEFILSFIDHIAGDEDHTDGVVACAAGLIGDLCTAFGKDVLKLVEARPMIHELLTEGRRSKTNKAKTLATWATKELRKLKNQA
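FRET biosensor (snurportin 1 IBB flanked by EYFP and cerulean), 50 nM, with compound 5 min, then 0.125 microM importin beta in PBS, 1 mM DTT, 0.02% Tween-20, 0.1% BSA. CFP/YFP ratio read after 45 min at room temperature; pre-read flags interference.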
miR-21 reporter = raises the signal of a miR-21 reporter; HeLa miR-21 FLuc reporter, luciferase, 48 h; Potency, µM (series often up to 38.3 µM), without a hit: at the top dose reporter change, positive = more light; AID 2288; 340,000 tested, under 10 active; active = well fitted rising curve with a large enough effect; inconclusive = small, poorly fitted or top-dose-only effect; inactive = no such curve, though single readings can be large or run the other way;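 also: % of control where 0% means no effect; miR-21 action dims this reporter so a rising signal means less miR-21 action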
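HeLa cells endogenously expressing miR-21, stably carrying CMV-driven firefly luciferase with a downstream miR-21 binding site, 2000 cells/well. Titrations up to approximately 40 uM, 48 hours; luciferase luminescence read.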
* hit, by the source's call; & = joins results of further samples; [ ] = remark or other dose.

Results for Cc1ccccc1N=Cc1cc2c(cc1O)OC(N)=C(C#N)C2c1ccccc1 (stereo not given) ?
Rango release inh: inconclusive; GLA inh pH 4.5: 7.0; Rango complex inh: inconclusive; miR-21 reporter: inconclusive

Results for CCOc1ccc(CCNC(=O)c2ccc(C)c(NC3=NC4CS(=O)(=O)CC4S3)c2)cc1 (stereo not given) ?
Rango release inh: -2.8%; Rango complex inh: 3.2%; miR-21 reporter: -4.1%

How did CCN(CC)S(=O)(=O)c1cccc(NC(=O)COC(=O)CNC(=O)c2cccc(F)c2)c1 do in these assays?
Rango release inh: -3.3%; GLA inh pH 4.5: -4.5; Rango complex inh: -1.0%; miR-21 reporter: -1.3%

How did CN(C)CCNC(=S)Nc1ccc(-c2nc3ccccc3[nH]2)cc1 do in these assays?
Rango release inh: 22.1%; GLA inh pH 4.5: -2.5; Rango complex inh: 0.0%; miR-21 reporter: 2.3%

Results for CCCNC(=O)COC(=O)/C=C/c1ccc2c(c1)OCO2 ?
Rango release inh: -21.0%; GLA inh pH 4.5: 3.6; Rango complex inh: -0.3%; miR-21 reporter: 2.0%

Results for NS(=O)(=O)c1ccc(N2C(=O)C3CC=CCC3C2=O)cc1 (stereo not given) ?
Rango release inh: -9.9%; GLA inh pH 4.5: 5.1; Rango complex inh: 6.6%; miR-21 reporter: 2.8%

Results for Cc1onc(-c2ccccc2)c1C(=O)NNC(=O)c1ccccc1 ?
Rango release inh: -13.7%; Rango complex inh: -2.0%

How did Cn1c(-c2ccc3c(c2)OCO3)cnc1NCc1cccc(O)c1 do in these assays?
Rango release inh: -6.5%; GLA inh pH 4.5: 4.4; Rango complex inh: 1.1%; miR-21 reporter: -25.9%

What do the screens show for `CCCc1nc2ccccc2c(=O)n1/N=C/c1ccc(O)c(O)c1`?
Rango release inh: -15.2%; GLA inh pH 4.5: -2.7; Rango complex inh: -0.2%; miR-21 reporter: 9.9%

How did CCOc1ccc(NC(=O)C2CCC(N3C(=O)C4CC=CCC4C3=O)CC2)cc1 (stereo not given) do in these assays?
Rango release inh: 0.2%; GLA inh pH 4.5: 1.8; Rango complex inh: 0.8%; miR-21 reporter: -9.0%

Results for O=C(CCc1ccc(S(=O)(=O)N2CCOCC2)cc1)NCCCN1CCCC1=O ?
Rango release inh: 16.8%; GLA inh pH 4.5: 11.9; Rango complex inh: 1.4%; miR-21 reporter: 0.6%

Results for O=C(O)CCC(=O)NC(c1ccccc1)c1ccccc1 ?
Rango release inh: -11.1%; GLA inh pH 4.5: -4.3; Rango complex inh: -1.8%; miR-21 reporter: 1.2%

What do the screens show for `CC(C)c1nnc(NC(=O)c2ccc3c(c2)OCO3)s1`?
Rango release inh: -7.2%; GLA inh pH 4.5: 8.3; Rango complex inh: -0.5%; miR-21 reporter: -11.9%

Results for C#CCSc1nc(-c2ccccc2)cc(C(F)(F)F)c1C#N ?
Rango release inh: -0.2%; GLA inh pH 4.5: 3.5; Rango complex inh: 3.1%; miR-21 reporter: -2.1%

Results for COc1ccc(OCC(O)Cn2c(Nc3ccccc3)nc3c2c(=O)n(C)c(=O)n3C)cc1 (stereo not given) ?
Rango release inh: -4.8%; GLA inh pH 4.5: 4.8; Rango complex inh: 1.8%; miR-21 reporter: -2.7%

How did COc1ccccc1NC(=O)c1ccccc1N(Cc1ccccc1)S(C)(=O)=O do in these assays?
Rango release inh: -19.5%; Rango complex inh: -0.8%; miR-21 reporter: 0.2%

What do the screens show for `CCOC(=O)c1ccc(NC(=O)N2CCCCCC2)cc1`?
Rango release inh: -7.4%; Rango complex inh: -0.2%; miR-21 reporter: -47.6%

How did O=C(Nc1csc([N+](=O)[O-])c1)Nc1c(Cl)cccc1Cl do in these assays?
Rango release inh: -8.8%; GLA inh pH 4.5: -1.4; Rango complex inh: 0.1%; miR-21 reporter: 11.4%

Results for CS(=O)(=O)N(Cc1ccc(Cl)cc1)c1ccc(C(=O)N/N=C/c2cc3ccccc3nc2Cl)cc1 ?
Rango release inh: 1.9%; GLA inh pH 4.5: -28.1; Rango complex inh: -0.1%; miR-21 reporter: -3.7%

What do the screens show for `Cc1ccc(NC(=O)COC(=O)c2ccc(CN3CCCC3=O)cc2)c(Cl)c1`?
Rango release inh: 1.2%; Rango complex inh: 4.9%

Results for CCS(=O)(=O)c1nc(S(=O)(=O)c2ccc(C)cc2)c(N2CCN(C)CC2)s1 ?
Rango release inh: inconclusive; Rango complex inh: 1.8%; miR-21 reporter: 9.0%

How did CS(=O)(=O)N1CCN(c2ccc([N+](=O)[O-])c(N3CCOCC3)c2)CC1 do in these assays?
Rango release inh: 0.7%; GLA inh pH 4.5: -13.4; Rango complex inh: inconclusive; miR-21 reporter: -0.3%

How did CSc1nnc(NC(=O)CCc2ccccc2)s1 do in these assays?
Rango release inh: 21.4%; GLA inh pH 4.5: -28.5; Rango complex inh: inconclusive; miR-21 reporter: -27.1%

What do the screens show for `CCOC(=O)CSc1ccc2nnc(CCNS(=O)(=O)c3ccccc3)n2n1`?
Rango release inh: 5.9%; GLA inh pH 4.5: 8.4[21.1 µM]; Rango complex inh: 1.9%; miR-21 reporter: 2.0%&0.4%

How did Cc1cc2c(c(Sc3ccccc3)n1)C(=O)OC2 do in these assays?
Rango release inh: 3.6%; GLA inh pH 4.5: -3.6; Rango complex inh: 4.8%; miR-21 reporter: -4.9%

How did NC(=O)c1c(NC(=O)c2ccccc2F)sc2c1CCCC2 do in these assays?
Rango release inh: -4.1%; Rango complex inh: -2.2%; miR-21 reporter: -55.0%

What do the screens show for `O=C(O)C1(Cc2nc3ccccc3[nH]2)CCCC1`?
Rango release inh: inconclusive; Rango complex inh: -0.3%; miR-21 reporter: -0.1%

What do the screens show for `COc1cc2c(cc1NC(=O)c1ccccc1F)CCCC2`?
Rango release inh: 8.5%; GLA inh pH 4.5: -4.1; Rango complex inh: 3.9%; miR-21 reporter: -77.4%

Results for COC(=O)c1sc(S(=O)(=O)N2CCC(C(N)=O)CC2)c(C(=O)OC)c1C ?
Rango release inh: -13.7%; GLA inh pH 4.5: 3.5; Rango complex inh: 1.6%; miR-21 reporter: -1.3%

What do the screens show for `O=C(NCc1ccco1)c1c[nH]c2ccc(S(=O)(=O)N3CCOCC3)cc2c1=O`?
Rango release inh: -14.3%; GLA inh pH 4.5: -7.9; Rango complex inh: -4.5%; miR-21 reporter: -1.6%

What do the screens show for `C[C@@H](O)C1NC(=O)[C@H](CCCCN)NC(=O)c2cc([N+](=O)[O-])cc(I)c2NCCC[C@@H](C(N)=O)NC1=O` (stereo not given in full)?
Rango release inh: -11.9%; GLA inh pH 4.5: 0.4; Rango complex inh: 9.2%; miR-21 reporter: -4.5%

How did Cc1ccc(C(=O)/C=C/Nc2ccccc2C(N)=O)o1 do in these assays?
Rango release inh: inconclusive; GLA inh pH 4.5: 8.9; Rango complex inh: inconclusive; miR-21 reporter: -57.4%

How did C=CCn1c(SCC(=O)Nc2cc(C)on2)nc2sc(C)c(C)c2c1=O do in these assays?
Rango release inh: 1.7%; GLA inh pH 4.5: 4.1; Rango complex inh: 1.1%; miR-21 reporter: -4.5%

What do the screens show for `O=C(COC(=O)C12CC3CC(CC(O)(C3)C1)C2)Nc1ccc(Cl)cc1F`?
Rango release inh: 12.1%; Rango complex inh: 6.7%

How did CC1=CC(=O)C=CC1(C)C(Cl)Cl (stereo not given) do in these assays?
Rango release inh: -2.6%; GLA inh pH 4.5: 7.0; Rango complex inh: 0.0%; miR-21 reporter: -5.5%

Results for O=C(NCc1ccco1)C1CCCCN1S(=O)(=O)c1ccc(F)cc1 (stereo not given) ?
Rango release inh: -26.1%; GLA inh pH 4.5: -2.7; Rango complex inh: 8.9%; miR-21 reporter: 1.9%

What do the screens show for `COc1ccc(C)c(-n2c(N)cc(=O)n(Cc3ccccc3)c2=O)c1`?
Rango release inh: 4.4%; GLA inh pH 4.5: 0.3; Rango complex inh: -2.4%; miR-21 reporter: -4.3%

How did COc1cc(C(=O)Nc2nc(OC)c(-c3ccccc3)c(OC)n2)cc(OC)c1OC do in these assays?
Rango release inh: 11.3%; GLA inh pH 4.5: 4.1; Rango complex inh: -5.9%; miR-21 reporter: 0.1%

What do the screens show for `CC1CCC2(CC1)NC(=O)N(CC(=O)NC1CCCCC1C)C2=O` (stereo not given)?
Rango release inh: -10.1%; Rango complex inh: 1.3%

What do the screens show for `N#Cc1ccc(OCC(=O)Nc2cc(S(=O)(=O)N3CCOCC3)ccc2N2CCCC2)cc1`?
Rango release inh: -10.1%; Rango complex inh: -3.0%

Results for CCCN(C(=O)c1cn(C)c(=O)c2ccccc12)c1ccccc1C ?
Rango release inh: 5.9%; Rango complex inh: 0.2%; miR-21 reporter: -0.4%&-1.2%

How did Nc1ccc2c(c1)[nH]c(=O)c1ccccc12 do in these assays?
Rango release inh: -20.5%; Rango complex inh: 2.5%

Results for Cc1ccc2oc(=O)c3cc(C(=O)NCCCN4C(C)CCCC4C)sc3c2c1 (stereo not given) ?
Rango release inh: -14.0%; Rango complex inh: 0.4%; miR-21 reporter: -5.1%

How did COC(=O)c1ccc(C23CC4(C2)[C@H](CN(CC2CCCCC2)[C@@H]4c2ccccc2)C3c2ccc(Cl)nc2)cc1 (stereo not given in full) do in these assays?
Rango release inh: 0.7%; GLA inh pH 4.5: -6.2&0.1; Rango complex inh: -0.2%; miR-21 reporter: 0.8%

How did O=C(NCCO)c1c(O)c2cccc3c2n(c1=O)CC3 do in these assays?
Rango release inh: 0.4%; GLA inh pH 4.5: 1.0; Rango complex inh: -0.4%; miR-21 reporter: -12.3%

How did CN(Cc1ccccc1)C(=O)CN(c1ccccc1Cl)S(C)(=O)=O do in these assays?
Rango release inh: 17.3%; Rango complex inh: -0.3%; miR-21 reporter: 0.1%

What do the screens show for `COc1cc(NC(=S)NN2CCN(C)CC2)cc(OC)c1`?
Rango release inh: 5.6%; GLA inh pH 4.5: 5.1; Rango complex inh: -0.4%; miR-21 reporter: -2.9%

What do the screens show for `CC(OC(=O)C1CCCC1)C(=O)Nc1ccc(S(N)(=O)=O)cc1` (stereo not given)?
Rango release inh: 9.4%; Rango complex inh: 0.2%

What do the screens show for `COc1ccc(NS(=O)(=O)c2ccc3ccccc3c2)c2ncccc12`?
Rango release inh: -2.1%; Rango complex inh: inconclusive; miR-21 reporter: 25.7%

Results for CCOC(=O)CC1C(=O)NCCN1c1nc2ccc(C)cn2c(=O)c1/C=C1\SC(=S)N(C(C)CC)C1=O (stereo not given) ?
GLA inh pH 4.5: -4.0; miR-21 reporter: 0.2%

How did Cc1cc(C)c2cc(C(c3nnnn3C3CCCC3)N3CCOCC3)c(=O)[nH]c2c1 (stereo not given) do in these assays?
Rango release inh: -9.3%; GLA inh pH 4.5: 3.0; Rango complex inh: inconclusive; miR-21 reporter: -1.4%

What do the screens show for `O=c1c2ccccc2ncn1Cc1nc2ccccc2s1`?
Rango release inh: -14.5%; GLA inh pH 4.5: 6.9; Rango complex inh: 1.4%; miR-21 reporter: -29.4%

How did COCCn1cc(C(=O)N2CCCC(C)C2)c2c3ccccc3n(C)c2c1=O (stereo not given) do in these assays?
Rango release inh: -14.6%; GLA inh pH 4.5: 15.7; Rango complex inh: -0.1%; miR-21 reporter: -15.4%

What do the screens show for `O=C(CSc1nc2[nH]ncc2c(=O)n1-c1ccc(Cl)c(Cl)c1)NCc1ccccc1Cl`?
Rango release inh: -6.1%; GLA inh pH 4.5: -7.3; Rango complex inh: 0.6%; miR-21 reporter: 27.0%

What do the screens show for `COc1cc(C(=S)N(C)C)ccc1O`?
Rango release inh: -6.1%; Rango complex inh: 0.3%; miR-21 reporter: 1.2%

How did Cc1ccc(CNC(=O)Cc2cn(C)c3ccccc23)cc1 do in these assays?
Rango release inh: 1.3%; Rango complex inh: 0.0%; miR-21 reporter: -26.8%

Arranged by molecular weight (rising): some entries from above.
What do the screens show for `O=C(O)C1(Cc2nc3ccccc3[nH]2)CCCC1`?
Rango release inh: inconclusive; Rango complex inh: -0.3%; miR-21 reporter: -0.1%

What do the screens show for `CCOC(=O)c1ccc(NC(=O)N2CCCCCC2)cc1`?
Rango release inh: -7.4%; Rango complex inh: -0.2%; miR-21 reporter: -47.6%

What do the screens show for `COc1ccc(C)c(-n2c(N)cc(=O)n(Cc3ccccc3)c2=O)c1`?
Rango release inh: 4.4%; GLA inh pH 4.5: 0.3; Rango complex inh: -2.4%; miR-21 reporter: -4.3%

The list is partial; count on the stated rates, not on these rows.
